Compound activity as filed in PubChem BioAssay.
RanGTP-Impb inh: disruptors of Ran-importin-beta complex formation – biochemical, FRET, CFP-Ran, YFP-importin-beta, homogeneous, primary screen; cell-free CFP-Ran/YFP-importin-beta FRET ratio; inhibition, % (no concentration beside the values); 300,000 tested, 1.1% active; AID 2216;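 active = most replicates above 15%; inconclusive = exactly half above 15%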;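 also: 0% = DMSO wells and 100% = Ran loaded with GDP instead of GTP; wells of about 40 µL received 100 nL stock; the first replicate is given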
AF4-AF9 inh: inhibitors of human MLL-AF4/AF9 interaction; AlphaScreen, biotin-AF4 peptide binding to FLAG-AF9; inhibition, % at 10 µM; 350,000 tested, 0.47% active; AID 651704;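 active = every replicate reaching a set inhibition limit, whatever the replicate mean, cut at about 25% in these data; inconclusive = mean inhibition reaches that limit but some replicates miss it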;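 also: 0% = plate neutral control median and 100% = total signal loss; the record names both 10 and 1 µM as test concentration; the first replicate is given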
Target sequence (P42568 whole entry, looked up): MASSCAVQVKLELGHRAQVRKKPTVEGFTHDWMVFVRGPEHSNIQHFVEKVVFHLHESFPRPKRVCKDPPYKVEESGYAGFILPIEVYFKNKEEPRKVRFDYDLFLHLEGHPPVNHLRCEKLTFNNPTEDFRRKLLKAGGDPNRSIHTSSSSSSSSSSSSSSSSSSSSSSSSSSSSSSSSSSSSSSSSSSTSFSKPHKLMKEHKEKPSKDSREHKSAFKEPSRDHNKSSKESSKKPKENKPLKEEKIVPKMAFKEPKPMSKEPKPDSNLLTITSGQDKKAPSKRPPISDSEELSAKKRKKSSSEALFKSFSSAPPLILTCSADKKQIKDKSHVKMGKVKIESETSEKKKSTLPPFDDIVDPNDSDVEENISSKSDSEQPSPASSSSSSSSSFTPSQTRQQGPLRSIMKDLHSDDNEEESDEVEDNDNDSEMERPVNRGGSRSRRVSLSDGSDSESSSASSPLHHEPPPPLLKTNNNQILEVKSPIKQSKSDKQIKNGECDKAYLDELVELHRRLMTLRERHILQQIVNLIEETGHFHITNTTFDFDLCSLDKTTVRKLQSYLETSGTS
Vif TR-FRET: inhibitors of Vif binding to APOBEC3G peptide, primary screen, biochemical, TR-FRET, GST-Vif 1-94, biotin-A3G peptide, dose response retest (AID 1117319). TR-FRET GST-Vif / biotin-A3G peptide binding; higher % means a stronger effect; test concentration not given here; strong numbers were not always called active. one-dose inhibition, %; IC50 in µM for titrated hits. 260,000 tested, 0.57% active;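 active = above the screen mean plus three standard deviations and confirmed in dose response; inconclusive = results disagree or hit not tested in dose response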;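 also: Vif residues 1-94 fused to GST binding biotinylated APOBEC3G peptide 110-148; 0% = full assay without inhibitor and 100% = GST in place of GST-Vif; retest series ran down from 100 µM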
Ecoli rRNA inh: inhibitors of bacterial rRNA selective over humanized ribosomes; GFP signal change (wild-type ribosome), % (no concentration beside the values); E. coli WT GFP vs humanized-ribosome RFP mutants, fluorescence, 24 h; active compounds read low; DMSO median 0, no signal -100; 350,000 tested, 1.6% active;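 active = significant combined selectivity score with lowered wild-type GFP, culture density cut under 30%, mutant RFP and density less affected; inactive = any of these conditions unmet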; also: one replicate is shown; some compounds called inactive have numbers as strong as hits
Beta apoptosis: blocks beta cell apoptosis; INS-1E cytokine-induced death, ATP luminescence, 48 h; percent of positive-control rescue, neutral wells zero; protection from apoptosis, % (test concentration not listed); 300,000 tested, 0.8% active;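 active = all replicates at 75% or more, or half of them and the mean; inconclusive = half reach 75% but not the mean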;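 also: 0% = cytokine-treated negative control wells and 100% = positive control rescue; higher means more ATP so stronger rescue from cytokine killing; wells of about 40 µL received 100 nL stock; the first replicate is given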
T cruzi repl: blocks replication of Trypanosoma cruzi; T. cruzi beta-gal in NIH3T3, luminescence, 90 h; inhibition, % (test concentration not listed); 300,000 tested, 1.4% active;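 active = mean inhibition across valid replicates above about 55%, limit read from the data; inconclusive = mean below that limit but half or more replicates reach it; inactive = mean below it, under half of replicates reach it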;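 also: signal also drops with host cell toxicity which is not excluded here; 0% = plate median of DMSO wells and 100% = zero luminescence signal; higher percent means less beta-gal luminescence so fewer parasites; stock transfer was 50 nL into about 50 µL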
A1 inh: inhibitors of the anti-apoptotic protein A1, read as caspase activation; MEF A1-2A-BIM cells, Caspase-Glo 3/7 luminescence, 3 h; percent of clofoctol response, vehicle zero; caspase activation, % (no concentration beside the values); 330,000 tested, 0.066% active; AID 2462;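 active = over half of replicate activation scores above 10%, or exactly half above 10 with the replicate mean above 10; inconclusive = replicate mean below 10 yet half the replicates above 10; inactive = over half of replicates below 10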;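 also: wells of about 30 µL received 50 nL stock; many hits fall short of the cut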
Calb FLC: C. albicans growth modulation with fluconazole; C. albicans CaCi-2 (fluconazole-resistant clinical isolate) + fluconazole, Alamar Blue growth, 48 h; 300,000 tested, 0.57% active; growth inhibition, % (concentration not given with the values);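 active = most replicates above 75%; inconclusive = exactly half above 75%; inactive = most below 75%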;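 also: all wells also contain fluconazole at 8 µg/ml as a sub-toxic cotreatment; 0% = median of DMSO wells and 100% = median of geldanamycin control wells; wells of about 8 µL received 7.5 nL stock; the first replicate is given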
Ecoli rRNA inh OD600: second read-out of Ecoli rRNA inh, no call of its own (marks repeat the call); OD600 change, %; measured here: OD600 growth;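 optical density of the mix in the first replicate; 0 = DMSO median and -100 = no signal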
Ecoli rRNA inh RFP: second read-out of Ecoli rRNA inh, no call of its own (marks repeat the call); RFP signal change, %; measured here: RFP humanized mutant strains;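 first replicate; 0 = DMSO median and -100 = no signal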
Active calls of the source: *; ? = inconclusive; / = no result given; & = joins results of further samples.

Order of results: Ecoli rRNA inh RFP	Vif TR-FRET	Calb FLC	Ecoli rRNA inh OD600	AF4-AF9 inh	T cruzi repl	Ecoli rRNA inh	RanGTP-Impb inh	Beta apoptosis	A1 inh
CC(C)C(=O)N1CCN(c2ccc(NC(=O)c3cccs3)cc2Cl)CC1
  3.7	/	9	8	-10	19	6	?	10	0.5
Cc1ccc(CNCC(O)(c2ccccc2)c2ccc(Cl)cc2)cc1 (stereo unspecified)
  19	0%	4	-36	0.2	47	-10	-0.6	/	/
CCSC1=N/C(=C/c2ccsc2)C(=O)N1c1ccccc1
  -5.7	/	-1	-13	4.9	24	-9	8.8	-3	0.7
CCSc1ncc(Cl)c(C(=O)Nc2sc3c(c2C(=O)NCc2cccnc2)CCCC3)n1
  /	-2%	-7	/	/	6	/	3.7	/	-0.4
CCC(C)c1ccc(C(C)NC(=S)NC2CCCCC2)cc1 (stereo unspecified)
  11	/	-6	-68	0.2	38	-20	-0.1	64	0.8
CC1Sc2ccc(S(=O)(=O)N3CCC(C(=O)NCc4ccccc4)CC3)cc2NC1=O (stereo unspecified)
  2.5	/	-3	-5	-0.9	8	-5	2.5	1	0.3
O=C1c2cccc3c([N+](=O)[O-])c(O)cc(c23)C(=O)N1Nc1ccccc1
  5.0	/	-6	-9	-3.8	-13	-4	-9.1	-1	0.4
Fc1ccc(-c2ccnc3nc(N4CCN(c5ccccc5)CC4)nn23)cc1
  /	12%	-9	/	/	-3	/	-0.7	0	2.2
O=C1CCCC/C=C\C[C@H](CC(=O)N(CCO)Cc2ccccc2)C(=O)NCCO1
  9.8	/	/	26	-2.9	/	10	/	-8	0.6
CC1(C2CC2)NC(=O)NC1=O (stereo unspecified)
  /	-1%	-8	/	/	-6	/	-1.8	-1	0.7
Cc1cc(NC(=O)CCCn2nc(C)c([N+](=O)[O-])c2C)no1
  -1.8	-12%	-5	-31	-19	3	-35	2.1	-2	-0.7
O=c1c2ccccc2c(C=Nc2cccc(S(=O)(=O)NCc3ccco3)c2)c(O)n1-c1ccc(Cl)cn1
  /	6%	1	/	/	31	/	-49	8	0.4
Cc1cc(C)cc(-n2c(C)nc3cc(C(=O)O)ccc32)c1
  -3.1	2%	-6	-15	-0.6	-4	-8	-4.2	-1	0.4
COc1cccc(CNC(=O)C2Cc3ccccc3CN2C(C)=O)c1 (stereo unspecified)
  1.5	/	9	16	-2.0	-21	11	-2.2	0	-0.2
CCCCCC(=O)NC(NC(=S)NC1CCS(=O)(=O)C1)C(Cl)(Cl)Cl (stereo unspecified)
  /	2%	14	/	/	3	/	0.8	-2	0.3
COc1cc(-c2noc(CCCC(=O)NCc3ccco3)n2)cc(OC)c1OC
  /	10%	33	/	/	-6	/	1.7	-6	0.0
C=CC[n+]1c(/C=C2\C=Cc3cc(C)ccc3N2CC)ccc2ccccc21
  30	4%	?	-77	17	66*	-42	-20	109*	0.5
Cc1cccc(OCC(=O)N(Cc2ccco2)C2CCS(=O)(=O)C2)c1 (stereo unspecified)
  7.6	/	-10	4	-6.8	-9	2	0.4	-2	2.2
O=C(Oc1coc(CSc2nnc(NC(=O)C3CC3)s2)cc1=O)c1ccccc1
  /	/	-8	/	/	-5	/	0.2	-4	0.4
CC1CN(C(=O)c2cc3cc(Br)ccc3[nH]2)CC(C)O1 (stereo unspecified)
  2.4	-3%	7	-3	0.9	7	-8	1.4	-4	0.9
Cc1ccc(-c2nnc(SCC(=O)N/N=C/c3c(C)nn(-c4ccccc4)c3C)n2-c2ccccc2)cc1
  -0.1	/	0	8	2.9	13	20	4.7	6	1.4
O=[n+]1c2c(n([O-])c3ccccc31)CCCC2
  /	9%	26	/	/	/	/	1.3	-6	-0.5
COc1cc(/C=C(\C#N)C(=O)c2c(C)[nH]c3ccccc23)cc(OC)c1OC
  5.9	23%	9	10	12	1	11	-0.1	7	0.3
O=C(/C=C/c1ccc2c(c1)OCCCO2)c1ccccc1O
  -7.5*	-1%	3	-1.0*	5.6	-7	-33*	3.3	-4	-6.7
Cn1c(=O)c(=O)n(C)c2cc(N3CCOCC3)c(NS(=O)(=O)c3ccc([N+](=O)[O-])cc3)cc21
  2.1	/	6	15	-2.5	-3	9	3.0	-1	0.7
Cc1ccc(S(=O)(=O)N2CCCOC2CNC(=O)C(=O)NCCCn2ccnc2)cc1 (stereo unspecified)
  /	-2%	3	/	0.9	-11	/	0.1	/	0.5
Cc1ccccc1CC(=O)Nc1ccc(C(=O)N2CCCC2)cc1
  -4.0	/	/	6	-0.7	-2	0	/	0	0.4
CC(C)[C@H](NC(=O)Nc1cccc(C(F)(F)F)c1)C(=O)O
  /	9%	?	/	/	-12	/	2.3	0	0.0
CC(C)(C)c1ccc(-c2nnc(N)o2)cc1
  /	2%	-7	/	-5.3	-4	/	5.1	-9	-0.5
CCC1CCCCN1CCCNC(=O)CCC(=O)N1CCOc2ccccc21 (stereo unspecified)
  -2.0	/	2	18	1.0	0	9	0.1	-3	-1.0
O=C(CN1C(=O)NC2(CCCCC2)C1=O)N1CCN(S(=O)(=O)c2ccc(Cl)s2)CC1
  -0.4	-3%	/	1	?	/	5	/	-13	0.3
Cc1ccc(NC(=O)c2cnc3ccccc3n2)cc1C
  -1.5	-2%	1	11	-4.5	-9	7	-5.4	-1	-4.6
COc1cc2cc(Oc3ccc4ccc(=O)oc4c3)c(=O)oc2cc1O
  /	-6%	1	/	-1.0	2	/	4.8	-2	-0.3
O=C(Nc1ccc(F)cc1)c1sc2cc(C(F)(F)F)cnc2c1-c1cccs1
  /	-20%	2	/	/	49	/	2.7	/	0.2
Cc1ccc2nc(Nc3nc(C)cc(C(F)(F)F)n3)nc(C)c2c1
  /	3%	0	/	/	-1	/	?	-2	0.4
CCC(C)NC(=O)C1CCN(S(=O)(=O)c2ccc(-n3cnnn3)cc2)CC1 (stereo unspecified)
  -1.9	/	16	2	0.0	-6	3	-1.0	2	0.1
O=C1Nc2ccccc2S/C1=C\C(=O)N1CCCC1
  /	17%	14	/	/	-4	/	1.0	8	-0.4
O=C(CCNC(=O)c1ccccc1)NN=Cc1ccc(Br)o1
  0.7	6%	/	19	-2.0	/	9	/	5	0.6
Cc1ccc(NC(=O)c2ccc(Cl)c(S(=O)(=O)N3CCCCCC3)c2)nc1
  0.5	2%	/	-1	3.1	33	0	-6.6	2	-0.1
CC(C)(C)NC(=O)CSc1n[nH]c(=O)n1-c1ccccc1
  /	12%	-11	/	/	5	/	9.0	-18	0.7
COc1ccc(OC)c(N2C(=O)CC(Cc3cc(C)cc(C)c3)C2=O)c1 (stereo unspecified)
  /	/	-8	/	/	-6	/	31*	-1	0.7
CN(C)c1nccc(N(Cc2ccccc2)Cc2ccccc2)c1C#N
  /	-3%	0	/	/	/	/	22	/	-0.6
COc1ccccc1CNC(=O)C(NS(=O)(=O)c1ccc2c(c1)OCCO2)C(C)C (stereo unspecified)
  /	/	-34	/	/	-1	/	-1.7	-10	1.5
COc1ccc2c(c1)sc1nc(-c3ccccc3)cn12
  /	20%	-13	/	/	5	/	-1.2	35	-10
N#C/C(=N\Nc1cccc([N+](=O)[O-])c1)C(=O)c1ccc(Br)cc1
  -9.8	/	97*	-60	2.3	28	-34	-8.1	104*	0.4
C/C(CC(=O)N(C(C)C)C(C)C)=N\NC(=O)c1ccccc1Br
  /	-10%	0	/	/	3	/	-4.6	1	-0.2
CCC(C)NS(=O)(=O)c1ccc(OCC(=O)N2CCCC2)cc1 (stereo unspecified)
  -5.1	17%	11	1	0.2	5	6	-1.9	-10	0.7
COc1ccc(CS(=O)(=O)CC2(O)CCN(C(=O)c3cccc(C(F)(F)F)c3)CC2)cc1
  0.5	9%	-7	4	-0.6	-8	6	5.0	1	0.0
O=S(=O)(c1ccc(-c2csc(Nc3ccc(F)cc3)n2)cc1)N1CCCC1
  13	?	-3	13	-0.7	20	-5	5.3	13	1.3
CC(=O)c1ccc(OCC(O)CN2CCN(Cc3ccc4c(c3)OCO4)CC2)cc1 (stereo unspecified)
  2.7&1.4	3%	-2&-5	6&10	-1.7&11	-3&7	0&2	-0.8&-1.7	/	0.8
COc1cccc(OC)c1C(=O)Nc1nc2cc3c(cc2s1)OCO3
  1.0	6%	-4	5	-0.1	-3	18	3.7	-4	-0.1
O=C(c1nc[nH]c1C(=O)N1CCN(c2ccccc2)CC1)N1CCN(c2ccccc2)CC1
  -4.3	/	/	3	-3.5	/	0	/	-2	0.5
Cc1ccc(C(=O)N/N=C/c2ccc(-c3cccc(C(F)(F)F)c3)o2)cn1
  /	0%	-7	/	1.7	3	/	19	16	-0.1
O=C(Cn1ccc(C(F)(F)F)n1)NNC(=O)c1cccnc1
  -0.4	/	-6	10	-1.5	-4	8	0.6	-5	1.3
Cc1noc(C)c1Cn1nc(C(=O)O)c2ccccc2c1=O
  /	5%	32	/	/	-4	/	-2.5	8	0.1
Brc1cc(-c2ccccc2)nc(-c2ccccc2)n1
  -1.8	/	2	25	-3.8	-45	12	-2.5	1	-0.5
Cc1sc2ncn(CC(=O)NCC(=O)N3CCN(c4ccc(F)cc4)CC3)c(=O)c2c1C
  0.0	/	3	0	0.6	-2	1	9.0	-2	0.8
CC(=O)N1[C@H](C)C=C[C@]1(Cc1ccccc1)C(=O)O
  -28	8%	10	-73	-1.5	-6	-52	3.1	3	-0.3
COc1ccc(-n2c(-c3cccc(C)c3[N+](=O)[O-])n[nH]c2=S)cc1
  /	0%	74*	/	/	4	/	-2.1	-2	-0.1
Cc1c(NC(=S)N/N=C\c2ccccc2O)c(=O)n(-c2ccccc2)n1C
  2.1	13%	-14	2	-5.8	-30	-3	2.0	2	0.3

Remaining list, next part.
Order of results: Ecoli rRNA inh RFP	Vif TR-FRET	Calb FLC	Ecoli rRNA inh OD600	AF4-AF9 inh	T cruzi repl	Ecoli rRNA inh	RanGTP-Impb inh	Beta apoptosis	A1 inh
O=C(Cn1cnc2c(nnn2Cc2ccccc2F)c1=O)NCc1ccco1
  /	1%	-14	/	/	-13	/	0.5	-3	-0.5
CCCCNc1ncnc2c1cnn2Cc1ccc(Cl)cc1
  -0.6	-4%	0	-22	0.4	3	-11	5.0	0	0.1
Cc1c(NC(=O)c2cc3ccccc3c(=O)s2)c(=O)n(-c2ccccc2)n1C
  10.0	4%	-2	11	1.6	-3	13	1.2	-3	1.7
O=C(CCCC(=O)N(CC(=O)NC1CCCC1)c1ccc(F)c(Cl)c1)Nc1ccccn1
  1.0	/	-20	0	2.4	-20	-5	4.4	-5	-0.2
Cc1cc(C)c2c(N)c(C(=O)NCc3ccco3)sc2n1
  /	3%&1%	-3	/	/	-12	/	-1.3	-3	0.1
Cc1cc(OC(F)F)ccc1NC(=O)Nc1ccc2c(c1)OCO2
  -0.5	/	-5	9	2.1	-2	7	2.9	-6	0.1

Not all compounds are listed, so the mix of outcomes need not match the whole.
